YB-1 expr inh – YB-1 expression inhibition | U2OS, qRT-PCR YB-1 vs CDIP delta delta Cp, 16 h; active compounds read high; zero = DMSO, each unit about twofold | delta delta Cp (YB-1 minus CDIP) (no concentration beside the values) | actives 0.37% (n = 30,000) | AID 434959;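 active means delta delta Cp rounded down to an integer at or above 3, about 3 SD of DMSO wells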;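 further: higher means less YB-1 transcript or more CDIP transcript relative to DMSO; stock transfer was 100 nL into about 100 µL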
Shh pathway inh – blocks Sonic Hedgehog signaling; actives 2.1% (n = 22,000); Shh-LIGHT2 Gli-luciferase reporter, 30 h; inhibition, % (concentration not given with the values);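 active means replicate mean of 65% or more; inconclusive means mean lower but half the replicates past it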;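 further: pathway switched on by Shh-conditioned medium diluted 1 in 25 in low serum; 100 nL library stock added to about 40 µL; 0% = median of neutral wells and 100% = positive control level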
PD-1 reversal – activators reversing PD-1 mediated T-cell inhibition; primary human CD4 T cells, PD-L1 beads, CellTiter-Glo 96 h; 29,000 tested, under 10 active; activation, % (test concentration not listed);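 active means replicate mean of 50% or more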;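 further: 0% = median vehicle wells and 100% = positive control; 100 nL library stock added to about 50 µL; numbers are from one replicate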
MITF inhib – inhibitors of MITF; inhibition, % (test concentration not listed); AID 2240; actives 0.28% (n = 37,000); TRPM1 promoter luciferase, luminescence, 24 h;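 active means most replicates at 85% or more, or half of them and the mean; inconclusive means half reach 85% but not the mean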;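 further: human melanocyte line stably carrying TRPM1 promoter luciferase reporter; 0% = vehicle wells and 100% = a positive control; the first replicate is given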
Active calls of the source: *; u = inconclusive; x = not tested or not shown. Some of the compounds tested (hit frequency here may not be typical).

Sample of the layout, 3 compounds:
Values run as follows: YB-1 expr inh	Shh pathway inh	PD-1 reversal	MITF inhib
> COc1ccc(C)cc1NC(=O)CSc1nnc(-c2ccc(C(C)(C)C)cc2)n1C
→ x	x	-2.3	31
> NC(=O)C1CCN(C(=O)CSc2nc(-c3ccccc3)cc(=O)[nH]2)CC1
→ x	x	2.3	1
> CC(C)(C)NC(=O)CSc1nnc(-c2ccco2)n1-c1ccccc1
→ x	x	0.5	-5

This part in full, from the start:
Values run as follows: YB-1 expr inh	Shh pathway inh	PD-1 reversal	MITF inhib
> COc1ccc(C)cc1NC(=O)CSc1nnc(-c2ccc(C(C)(C)C)cc2)n1C
→ x	x	-2.3	31
> NC(=O)C1CCN(C(=O)CSc2nc(-c3ccccc3)cc(=O)[nH]2)CC1
→ x	x	2.3	1
> CC(C)(C)NC(=O)CSc1nnc(-c2ccco2)n1-c1ccccc1
→ x	x	0.5	-5
> COc1ccc(NC(=O)N(C)C[C@H]2Oc3ccc(NC(=O)Nc4ccccc4)cc3CC(=O)N([C@H](C)CO)C[C@H]2C)cc1
→ 0.4	x	x	-2
> Cc1cc(C(=O)Nc2cccc3c2O[C@H](CN(C)C(=O)Nc2ccc(C(F)(F)F)cc2)[C@H](C)CN([C@H](C)CO)C3=O)n(C)n1
→ -0.14	1	0.8	-8
> C[C@H](CO)N1C[C@H](C)[C@H](CN(C)Cc2ccc(Cl)c(Cl)c2)Oc2ccc(NS(=O)(=O)c3cccs3)cc2C1=O
→ -0.26	30	1.6	-8
> CC1=COC=C(C=NCc2ccccc2)N1c1ccccc1
→ -0.98	x	-0.2	5
> C[C@H](CO)N1C[C@H](C)[C@H](CN(C)S(=O)(=O)c2ccc(F)cc2)Oc2ccc(NC(=O)c3ccncc3)cc2CC1=O
→ -0.7	x	0.5	9
> C[C@H]1CN([C@@H](C)CO)C(=O)c2cc(NC(=O)c3ccncc3)ccc2O[C@@H]1CN(C)C(=O)Nc1ccccc1
→ 0.012	-15	0.8	-5
> COc1ccc(S(=O)(=O)Nc2ccc3c(c2)CC(=O)N([C@@H](C)CO)C[C@H](C)[C@@H](CN(C)S(=O)(=O)c2ccc(OC)cc2)O3)cc1
→ -0.17	-6	2.0	-3
> CNC[C@H]1Oc2c(NS(=O)(=O)c3ccc(F)cc3)cccc2C(=O)N([C@H](C)CO)C[C@@H]1C
→ 0.18	0	x	-9
> COc1ccc(S(=O)(=O)N(C)C[C@H]2Oc3ccc(N(C)C)cc3CC(=O)N([C@@H](C)CO)C[C@H]2C)cc1
→ -0.18	2	0.8	-7
> Cc1ccc(S(=O)(=O)Nc2ccc3c(c2)C(=O)N([C@@H](C)CO)C[C@@H](C)[C@H](CN(C)C(=O)Nc2ccccc2)O3)cc1
→ 0.083	-14	1.3	-6
> COc1ccc(CN(C)C[C@@H]2Oc3ccc(NC(=O)Nc4ccc(F)cc4)cc3C(=O)N([C@H](C)CO)C[C@@H]2C)cc1
→ -0.16	17	-1.2	-2
> COc1ccc(S(=O)(=O)Nc2ccc3c(c2)C(=O)N([C@H](C)CO)C[C@H](C)[C@H](CN(C)C(=O)Nc2ccc4c(c2)OCO4)O3)cc1
→ -0.64	x	x	-3

Following part
Values run as follows: YB-1 expr inh	Shh pathway inh	PD-1 reversal	MITF inhib
> C[C@@H]1CCCCO[C@@H](CN(C)C(=O)Nc2cccc3ccccc23)[C@@H](C)CN([C@H](C)CO)C(=O)c2cc(NS(=O)(=O)c3cn(C)cn3)ccc2O1
→ 0.26	-20	0.8	14
> C[C@@H]1CN([C@@H](C)CO)C(=O)c2cccc(NC(=O)C3CCOCC3)c2O[C@H]1CN(C)Cc1ccc(Cl)c(Cl)c1
→ -0.023	49	0.1	-23
> Cc1ccc(-c2nc3ccccc3[nH]2)cc1NC(=O)C(C)Oc1ccc(Cl)cc1Cl (configuration not stated)
→ x	x	-0.6	-8
> O/N=C1/C2CN3CCN(C2)CC1(Cc1ccccc1)C3
→ -0.17	-32	-0.1	4
> C[C@H]1CN([C@@H](C)CO)C(=O)Cc2cc(NS(=O)(=O)c3ccc(Cl)cc3)ccc2O[C@@H]1CN(C)C(=O)NC1CCCCC1
→ 0.096	6	-1.0	-8
> C[C@@H]1CN([C@@H](C)CO)C(=O)c2cc(NS(=O)(=O)c3ccc(F)cc3)ccc2O[C@@H]1CN(C)Cc1ccc(Cl)c(Cl)c1
→ 0.18	x	-3.3	65
> C[C@@H]1CN([C@@H](C)CO)C(=O)c2cc(NC(=O)Nc3cccc4ccccc34)ccc2O[C@@H]1CN(C)Cc1ccccc1
→ 0.45	18	1.1	-2
> O=c1c(-c2nnnn2-c2ccccc2)c[nH]c2ccccc12
→ 0.39	-5	-0.9	11
> CC1CCC(C(C)C)C(=O)/C1=C/c1ccc(N(C)C)cc1 (configuration not stated)
→ -0.048	x	-0.5	-33
> Cc1sc(NC(=S)NC(=O)Cc2cccc3ccccc23)c(C(N)=O)c1C
→ x	x	-5.8	38
> C[C@@H]1CN([C@H](C)CO)C(=O)c2cccc(NC(=O)Nc3ccc4c(c3)OCO4)c2O[C@@H]1CN(C)Cc1ccncc1
→ 1.1	7	3.1	-4
> Cc1onc(-c2ccccc2)c1C(=O)NC1C(=O)N2[C@@H]1SC(C)(C)[C@@H]2C(=O)O (some centres not stated)
→ 0.016	-59	x	-8
> Cn1c(SCC(=O)Nc2cccc(C(F)(F)F)c2)nnc1-c1ccc(F)cc1
→ x	x	0.0	15
> CC(=O)c1cccc(NC(=O)CSc2nnnn2C)c1
→ x	x	0.2	-41
> Cc1ccc(S(=O)(=O)Nc2cccc3c2O[C@@H](CN(C)Cc2ccc(C(=O)O)cc2)[C@H](C)CN([C@@H](C)CO)C3=O)cc1
→ -0.41	-10	1.4	-3

Continued, starting with the last two of the part before.
Values run as follows: YB-1 expr inh	Shh pathway inh	PD-1 reversal	MITF inhib
> CC(=O)c1cccc(NC(=O)CSc2nnnn2C)c1
→ x	x	0.2	-41
> Cc1ccc(S(=O)(=O)Nc2cccc3c2O[C@@H](CN(C)Cc2ccc(C(=O)O)cc2)[C@H](C)CN([C@@H](C)CO)C3=O)cc1
→ -0.41	-10	1.4	-3
> O=C(Nc1ccc(S(=O)(=O)Nc2ncccn2)cc1)C1CCC1
→ x	x	0.6	-7
> C[C@@H]1CN([C@H](C)CO)C(=O)c2cccc(NC(=O)CCCCCC(=O)Nc3ccccc3N)c2O[C@@H]1CN(C)Cc1ccc(Cl)c(Cl)c1
→ 0.067	x	0.4	31
> O=C(CSc1nc(-c2ccccc2)c(-c2ccccc2)[nH]1)Nc1ccccc1F
→ x	x	-5.1	28
> C[C@@H]1CN([C@@H](C)CO)C(=O)c2cccc(NS(=O)(=O)c3cccs3)c2O[C@@H]1CN(C)Cc1ccc(C(=O)O)cc1
→ 0.56	u	1.6	-1
> CCC(NC(=O)c1cc(OC)c(OC)c(OC)c1)C12CC3CC(CC(C3)C1)C2 (configuration not stated)
→ 0.035	16	-6.5	0
> C[C@H]1CN([C@@H](C)CO)C(=O)c2cccc(NC(=O)Nc3ccccc3)c2O[C@@H]1CN(C)Cc1ccc(C(=O)O)cc1
→ -0.4	-23	2.8	0
> Cc1noc(C)c1NC(=O)Nc1ccc2c(c1)CC(=O)N([C@H](C)CO)C[C@@H](C)[C@H](CN(C)S(=O)(=O)c1ccc(Cl)cc1)O2
→ 0.28	-35	-0.2	1
> C=C1[C@H]2CC[C@@]3(C)[C@H](c4ccoc4)OC(=O)C[C@]13O[C@H]1C[C@H](O)C(C)(C)[C@H](CC(=O)OC)[C@]12C
→ -0.066	-34	x	-36
> C[C@H]1CN([C@@H](C)CO)C(=O)c2cc(NS(=O)(=O)c3cccs3)ccc2O[C@@H]1CN(C)C(=O)Nc1ccc(C(F)(F)F)cc1
→ -0.084	-1	-1.4	3
> C[C@H](CO)N1C[C@H](C)[C@H](CN(C)Cc2ccc3c(c2)OCO3)Oc2c(NC(=O)Nc3ccc(F)cc3)cccc2C1=O
→ 0.039	-24	-0.6	17
> C[C@@H]1CN([C@@H](C)CO)C(=O)c2cc(NC(=O)C3CC3)ccc2O[C@H]1CN(C)C(=O)Nc1ccc2c(c1)OCO2
→ -0.033	-12	-0.8	-13
> COc1ccc(S(=O)(=O)Nc2ccc3c(c2)CC(=O)N([C@H](C)CO)C[C@H](C)[C@H](CN(C)C(=O)Nc2c(C)noc2C)O3)cc1
→ -0.51	x	x	-2
> C[C@H]1[C@H](NC(=O)/C(=N\OC(C)(C)C(=O)O)c2csc(N)n2)C(=O)N1S(=O)(=O)O
→ 0.44	-16	1.8	-14
> COc1ccc(NC(=O)N(C)C[C@@H]2Oc3ccc(NS(=O)(=O)c4ccc(Cl)cc4)cc3CC(=O)N([C@H](C)CO)C[C@@H]2C)cc1
→ -0.25	x	x	-14
> C[C@@H]1CCCCO[C@@H](CN(C)C(=O)NC2CCCCC2)[C@@H](C)CN([C@H](C)CO)C(=O)c2cc(NC(=O)Nc3ccc(F)cc3)ccc2O1
→ 0.11	46	x	-10

(more compounds)
Values run as follows: YB-1 expr inh	Shh pathway inh	PD-1 reversal	MITF inhib
> C=C(C(=O)O)C(CCCCCCO)C(=O)O (configuration not stated)
→ 0.24	3	-0.6	-13
> C[C@H](CO)N1C[C@H](C)[C@@H](CN(C)C(=O)Nc2cccc3ccccc23)Oc2ccc(NS(=O)(=O)c3ccc(Cl)cc3)cc2C1=O
→ 2.6	x	0.5	-8
> COc1ccc(-c2cc(=O)c3c(OC)c(OC)c(OC)c(OC)c3o2)cc1
→ 0.21	5	0.9	-3
> C[C@H](CO)N1C[C@H](C)[C@@H](CN(C)C(=O)Nc2ccccc2)Oc2ccc(NC(=O)C3CC3)cc2C1=O
→ 0.0042	-17	x	-2
> CS(=O)(=O)c1ccc([C@@H](O)[C@@H](CO)NC(=O)C(Cl)Cl)cc1
→ -0.067	-37	x	0
> COc1ccc(CN(C)C[C@@H]2Oc3ccc(NC(=O)CCCCCC(=O)Nc4ccccc4N)cc3CC(=O)N([C@@H](C)CO)C[C@@H]2C)cc1
→ -0.086	x	-0.4	27
> Cc1ccc(N(C(C)C(=O)Nc2ccccc2Br)S(C)(=O)=O)cc1 (configuration not stated)
→ x	x	-2.1	-20
> CNC[C@@H]1Oc2ccc(NS(C)(=O)=O)cc2C(=O)N([C@@H](C)CO)C[C@H]1C
→ 0.031	42	0.3	0
> CC(C)NC(=O)N(C)C[C@@H]1Oc2ccc(N(C)C)cc2C(=O)N([C@@H](C)CO)C[C@H]1C
→ -0.12	-15	2.2	7
> COc1ccc(NC(=O)Nc2ccc3c(c2)C(=O)N([C@H](C)CO)C[C@H](C)[C@H](CN(C)C(=O)Nc2cccc4ccccc24)O3)cc1
→ -0.082	0	0.8	-1
> Cc1noc(C)c1NC(=O)Nc1ccc2c(c1)C(=O)N([C@H](C)CO)C[C@@H](C)[C@H](CN(C)C(=O)NC1CCCCC1)O2
→ -0.012	x	0.4	-4
> C[C@@H]1CN([C@H](C)CO)C(=O)c2cc(NC(=O)CCCN(C)C)ccc2O[C@@H]1CN(C)S(=O)(=O)c1ccc(Cl)cc1
→ -0.17	-96	x	-3
> N#CC1=C(N)C(C#N)=c2s/c(=C/c3cccc(F)c3)c(=O)n2C1c1cccc(F)c1 (configuration not stated)
→ 0.18	-26	0.9	-13
> C[C@H]1CN([C@@H](C)CO)C(=O)Cc2cc(NS(=O)(=O)c3cn(C)cn3)ccc2O[C@@H]1CN(C)C(=O)Nc1ccc2c(c1)OCO2
→ 0.17	2	1.3	-4
> COc1ccnc(CS(=O)c2nc3ccc(OC(F)F)cc3[nH]2)c1OC (configuration not stated)
→ 0.35	25	x	12

More results
Values run as follows: YB-1 expr inh	Shh pathway inh	PD-1 reversal	MITF inhib
> C[C@@H]1CN([C@H](C)CO)C(=O)Cc2cc(NC(=O)Nc3ccccc3)ccc2O[C@@H]1CN(C)S(=O)(=O)c1ccccc1
→ -0.25	-1	x	-3
> COc1ccc(NC(=O)N(C)C[C@H]2Oc3c(NC(=O)NC4CCCCC4)cccc3C(=O)N([C@H](C)CO)C[C@@H]2C)cc1
→ 0.16	-17	-0.1	-3
> C[C@H]1CN([C@@H](C)CO)C(=O)c2cccc(NC(=O)Nc3ccc(C(F)(F)F)cc3)c2O[C@H]1CN(C)Cc1ccc(Oc2ccccc2)cc1
→ 0.26	-13	x	-6
> COc1ccc(NC(=O)Nc2cccc3c2O[C@H](CN(C)Cc2ccc(Cl)c(Cl)c2)[C@H](C)CN([C@@H](C)CO)C3=O)cc1
→ -0.16	52	-4.6	-2
> COc1cc(-c2nnc(SCC(=O)c3cccc([N+](=O)[O-])c3)n2-c2ccccc2)cc(OC)c1OC
→ x	x	-2.7	9
> C[C@H]1CN([C@@H](C)CO)C(=O)Cc2cc(NS(=O)(=O)c3cccs3)ccc2O[C@@H]1CN(C)Cc1ccc(C(=O)O)cc1
→ 0.56	-13	4.4	-9
> CCNC(=S)Nc1ccc(NC(=O)c2ccccc2O)cc1
→ -0.19	6	0.8	-78
> O=C(NCCOc1ccccc1Cl)c1ncn[nH]1
→ x	x	3.5	-53
> C[C@@H]1CN([C@@H](C)CO)C(=O)c2cc(NC(=O)Nc3ccccc3)ccc2O[C@@H]1CN(C)Cc1ccc(C(=O)Nc2ccccc2N)cc1
→ -0.16	x	-2.9	28
> c1cnc(N2CC[N+]3(CCCC3)CC2)nc1
→ 0.035	-3	0.3	-6
> COc1ccc(CN(C)C[C@H]2Oc3ccc(NC(=O)C4CC4)cc3CC(=O)N([C@@H](C)CO)C[C@H]2C)cc1
→ -0.023	x	0.6	-6

Screening results (PubChem)
